Screening data: PubChem BioAssay, several laboratories
AF4-AF9 inh: inhibitors of human MLL-AF4/AF9 interaction; AlphaScreen, biotin-AF4 peptide binding to FLAG-AF9; inhibition, % at 10 µM; hit rate 0.47% among 350,000;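 active means every replicate reaching a set inhibition limit, whatever the replicate mean, cut at about 25% in these data; inconclusive means mean inhibition reaches that limit but some replicates miss it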;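 further: 0% = plate neutral control median and 100% = total signal loss; the record names both 10 and 1 µM as test concentration; the first replicate is given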
E coli growth: inhibitors of Escherichia coli growth. OD600 absorbance (no concentration beside the values). OD600, 23 h; active compounds read low. hit rate 0.21% among 330,000. AID 1053175;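 active means OD600 absorbance below the run mean of sample wells minus 3.6 SD, in any replicate, cut at about 0.56 in these data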;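 further: stock transfer was 300 nL into about 60 µL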
Vif A3G: inhibitors of Vif binding to APOBEC3G peptide, primary screen, biochemical, TR-FRET, GST-Vif 1-94, biotin-A3G peptide, dose response retest (AID 1117319). TR-FRET GST-Vif / biotin-A3G peptide binding; higher % means a stronger effect; test concentration not given here; strong numbers were not always called active. one-dose inhibition, %; IC50 in µM for titrated hits. hit rate 0.57% among 260,000;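 active means above the screen mean plus three standard deviations and confirmed in dose response; inconclusive means results disagree or hit not tested in dose response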;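 further: Vif residues 1-94 fused to GST binding biotinylated APOBEC3G peptide 110-148; 0% = full assay without inhibitor and 100% = GST in place of GST-Vif; retest series ran down from 100 µM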
HNF4A DNA FP: change in binding of human HNF4 alpha to DNA; hit rate 0.3% among 360,000; HNF4a-FITC DNA binding, fluorescence polarization, 1 h; activity change, % at 10 µM; P41235; in the data active means activity change above about 30%, passing the limit was not always enough;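 further: controls were the assay level and a saturating level of protein; the project sought stronger binding though the title names inhibitors; some compounds called inactive have numbers as strong as hits; positive values seem to mean higher polarization but the record does not say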
Target sequence (P41235 whole entry, looked up): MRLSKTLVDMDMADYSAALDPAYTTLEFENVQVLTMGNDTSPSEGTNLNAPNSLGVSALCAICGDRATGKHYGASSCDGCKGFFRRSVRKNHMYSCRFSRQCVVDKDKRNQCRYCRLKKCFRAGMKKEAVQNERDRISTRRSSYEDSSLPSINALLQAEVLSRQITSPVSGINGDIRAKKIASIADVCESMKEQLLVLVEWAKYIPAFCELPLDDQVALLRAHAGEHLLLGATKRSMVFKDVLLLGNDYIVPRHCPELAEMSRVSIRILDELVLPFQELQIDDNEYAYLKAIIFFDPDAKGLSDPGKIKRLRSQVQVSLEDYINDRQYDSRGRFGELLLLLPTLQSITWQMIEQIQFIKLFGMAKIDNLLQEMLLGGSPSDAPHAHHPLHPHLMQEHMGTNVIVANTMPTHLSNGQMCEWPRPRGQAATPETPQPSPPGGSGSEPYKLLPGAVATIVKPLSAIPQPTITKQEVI
Ecoli rRNA inh: inhibitors of bacterial rRNA selective over humanized ribosomes; AID 720706; GFP signal change (wild-type ribosome), % (concentration not given with the values); hit rate 1.6% among 350,000; E. coli WT GFP vs humanized-ribosome RFP mutants, fluorescence, 24 h; active compounds read low; DMSO median 0, no signal -100;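 active means significant combined selectivity score with lowered wild-type GFP, culture density cut under 30%, mutant RFP and density less affected; inactive means any of these conditions unmet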; further: one replicate is shown; some compounds called inactive have numbers as strong as hits
ALR inh: blocks human ALR sulfhydryl oxidase activity | inhibition, % (test concentration not listed) | AID 485317 | P55789 | hit rate 3.8% among 290,000 | purified ALR, DTT oxidation, H2O2 HRP-luminol luminescence;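 active means mean and each replicate at 75% or more; inconclusive means only one of the two met; inactive means neither met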;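 further: stock transfer was 7.5 nL into about 7.5 µL; 0% = neutral wells and 100% = wells with inactivated enzyme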
Target sequence (P55789 whole entry, looked up): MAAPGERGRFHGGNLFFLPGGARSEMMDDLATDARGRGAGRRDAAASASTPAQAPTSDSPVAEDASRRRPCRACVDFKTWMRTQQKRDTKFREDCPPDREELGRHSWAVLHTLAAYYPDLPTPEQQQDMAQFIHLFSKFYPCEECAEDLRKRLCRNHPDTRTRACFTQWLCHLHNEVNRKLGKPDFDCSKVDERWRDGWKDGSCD
FGF22 binding: shifts melting point of recombinant human FGF22; recombinant FGF22 thermal shift, SYPRO orange fluorescence; percent of sucrose octasulfate shift, DMSO zero; calls only at 9.99 µM; hit rate 1.5% among 340,000; AID 651658;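 active means melting point raised past a set limit in the mean and every replicate; inconclusive means no clear call; three in four hits are not shown here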
Target sequence (Q9HCT0 whole entry, looked up): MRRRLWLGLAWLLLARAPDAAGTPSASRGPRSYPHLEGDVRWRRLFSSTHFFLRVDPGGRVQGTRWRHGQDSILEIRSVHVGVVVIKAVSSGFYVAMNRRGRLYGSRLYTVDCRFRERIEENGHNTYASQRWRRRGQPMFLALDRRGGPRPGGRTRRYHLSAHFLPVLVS
Ecoli rRNA inh OD600: recorded beside Ecoli rRNA inh, whose call it bears; OD600 change, %; measured here: OD600 growth;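 optical density of the mix in the first replicate; 0 = DMSO median and -100 = no signal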
Ecoli rRNA inh RFP: second read-out of Ecoli rRNA inh, no call of its own (marks repeat the call); RFP signal change, %; measured here: RFP humanized mutant strains;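 first replicate; 0 = DMSO median and -100 = no signal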
The depositor's hits bear a star; i = inactive; ? = inconclusive; nt = not tested or not shown; + = active, no number; & = joins results of further samples.

entry	Molecule	AF4-AF9 inh	Ecoli rRNA inh	Ecoli rRNA inh RFP	Vif A3G	HNF4A DNA FP	E coli growth	ALR inh	FGF22 binding	Ecoli rRNA inh OD600
1	CCCN(CC1CC1)C(=O)COC(=O)c1oc2ccc(OCC)cc2c1C	-7.3	nt	nt	5%	3.3	0.66	-6	i	nt
2	COC(=O)c1ccc2c(=O)n(NC(C)=O)c(=S)[nH]c2c1	nt	nt	nt	-1%	4.8	0.71	21	nt	nt
3	CCOc1ccc(CNC(=O)CCn2c(=O)oc3ccccc32)cc1	nt	nt	nt	4%	3.1	0.7	0	nt	nt
4	CN1CCN(C(=O)c2ccc3c(c2)NC(=O)C(C)(C)O3)CC1	nt	nt	nt	1%	-1.0	0.71	-23	nt	nt
5	O=S(=O)(c1ccccc1)N1CCCCN2[C@H](CO)[C@H](c3ccc(-c4ccccc4)cc3)[C@H]2C1	1.0	-54	-4.4	nt	nt	nt	nt	i	-65
6	CC(C)CNC(=O)COC(=O)c1ccccc1SCC(=O)NCC(C)C	-2.0	9	3.1	-2%	-0.6	0.72	8	i	7
7	COC(=O)c1ccc(COC(=O)CCS(=O)(=O)c2ccc(C)cc2)cc1	-6.2	-2	-0.5	-4%	1.1	0.66	-1	i	-1
8	CCN=C1NN=C(c2cc(C)n(Cc3ccco3)c2C)CS1	7.8	nt	nt	nt	4.6	0.64	0	i	nt
9	Cc1cccc(Cn2cc(/C=C/[N+](=O)[O-])c3ccccc32)c1	nt	nt	nt	1%	4.9	0.7	6	nt	nt
10	COC(=O)CCN(C1CCCCC1)S(=O)(=O)c1ccc(S(=O)(=O)NC2CCCCC2)cc1	nt	nt	nt	1%	0.9	0.73	17	nt	nt
11	COc1ccc(/C=C2\SC(=S)N(CCC(=O)Nc3cccc(O)c3)C2=O)cc1	-0.9	9	0.1	2%	-1.9	0.63	nt	i	13
12	O=C(CCCC(=O)c1ccccc1)NCCc1ccccc1F	-0.9	-2	-8.6	-3%	4.0	0.65	-6	i	-1
13	Cc1ccc(C(=O)NCC(=O)NCC(=O)OCC(=O)c2ccc(F)cc2)cc1	nt	nt	nt	-3%	-0.8	0.71	nt	nt	nt
14	CC1=Nn2c(nnc2-c2ccccc2Cl)SC1	nt	nt	nt	-6%	0.1	0.69	-9	nt	nt
15	CCOC(=O)C1=C(CN2CCc3ccccc32)NC(=O)NC1c1cccc([N+](=O)[O-])c1 (centres undefined)	nt	nt	nt	12%	0.2	0.65	39	nt	nt
16	CC(=O)N(c1cccc(Br)c1)c1nc(C)cc(C)c1C#N	2.5	-11	2.6	0%	1.8	0.65	3	i	1
17	Cc1onc(-c2ccccc2)c1CNC(=O)C1COc2ccccc2O1 (centres undefined)	0.2	1	-0.1	69%	-2.5	0.68	-4	i	11
18	CCOC(=O)c1ccc(S(=O)(=O)N2CCC(N3CCCCCC3)CC2)cc1	3.5	12	3.1	nt	-2.3	nt	nt	i	23
19	COc1ccc(N2CCN(C(=O)c3c(Cl)cnn3C)CC2)cc1	-9.8	-1	1.6	nt	7.1	0.63	99*	i	-4
20	Cc1ccc(C(=O)N/N=C(/CC(=O)c2cccs2)C(F)(F)F)cc1	-0.9	-11	-9.8	3%	-1.3	nt	62	i	-7

The closing 3 records of the part before open the next one.
entry	Molecule	AF4-AF9 inh	Ecoli rRNA inh	Ecoli rRNA inh RFP	Vif A3G	HNF4A DNA FP	E coli growth	ALR inh	FGF22 binding	Ecoli rRNA inh OD600
18	CCOC(=O)c1ccc(S(=O)(=O)N2CCC(N3CCCCCC3)CC2)cc1	3.5	12	3.1	nt	-2.3	nt	nt	i	23
19	COc1ccc(N2CCN(C(=O)c3c(Cl)cnn3C)CC2)cc1	-9.8	-1	1.6	nt	7.1	0.63	99*	i	-4
20	Cc1ccc(C(=O)N/N=C(/CC(=O)c2cccs2)C(F)(F)F)cc1	-0.9	-11	-9.8	3%	-1.3	nt	62	i	-7
21	CC(=O)Nc1nc(-c2ccc(Cl)cc2)ns1	nt	nt	nt	?	7.2	0.65	-2	nt	nt
22	O=C(C1CCOCC1)N1CC2(C1)[C@@H](c1ccccc1)[C@@H](CO)N2Cc1ccccc1F	-10	-4	-0.2	nt	nt	nt	nt	+	9
23	CO[C@@H]1CN(C)C(=O)c2ccc(NS(=O)(=O)CC(F)(F)F)cc2OC[C@@H](C)N(C)C[C@@H]1C	-1.1	-2	-1.9	nt	nt	nt	nt	i	1
24	CC(C)Cc1nnc(NC(=O)CCC(=O)N2CCN(c3ccccc3)CC2)s1	-18	16	1.0	nt	1.2	0.67	1	i	19
25	COc1ccc(N2C(=O)[C@@H]3C(c4cccnc4)=NO[C@@H]3C2=O)cc1	-4.0	12	0.5	nt	2.3	0.64	-18	i	3
26	Cc1ccnc(NC(=O)CCC(=O)N(CC(=O)NCc2ccccc2)Cc2ccco2)c1	-0.7	7	3.3	-4%	0.5	0.67	-4	i	3
27	O=C(COc1ccc(Cl)cc1)NCCN1CCCC1	-18	7	1.2	nt	6.4	0.67	-6	i	8
28	CCCCn1c(-c2csc(CCC)c2)n[nH]c1=S	-0.2	1	-1.8	4%	0.4	0.66	64	i	-17
29	CCCC(=O)OCC(=O)c1[nH]c(C)c(C(C)=O)c1C	-1.5	-2	-0.9	10%	0.4	0.72	nt	i	-4
30	CCOC(=O)C1CCN(C(=O)c2cc(C(C)(C)C)nn2Cc2ccccc2)CC1	1.0	nt	nt	11%	3.3	0.65	6	i	nt
31	O=C(O)CCC(=O)Nc1ccccc1N1CCOCC1	nt	nt	nt	3%	1.9	0.76	-7	nt	nt
32	CC(=O)N1[C@@H]2c3ccc(-c4cccc(F)c4)c(=O)n3C[C@H]1[C@H](CO)[C@H]2C(=O)NCC1CC1	-1.0	1	-0.4	nt	nt	nt	nt	i	-2
33	C[C@H]1CN([C@@H](C)CO)C(=O)Cc2cc(NC(=O)NC3CCCCC3)ccc2O[C@@H]1CN(C)C(=O)Nc1ccc(F)cc1	-1.4	0	1.4	nt	nt	nt	nt	i	5
34	COc1ccccc1NC(=S)NCCc1ccc(Cl)cc1	nt	nt	nt	15%	1.9	0.65	5	nt	nt
35	COc1ccc(-n2nc3c(c2NC(=O)c2cc(Br)ccc2Cl)CS(=O)C3)cc1 (centres undefined)	3.3	-7	-1.4	-6%	-4.4	0.71	nt	i	-17
36	C[C@@H]1CCCCO[C@@H](CN(C)S(=O)(=O)c2ccc(Cl)cc2)[C@H](C)CN([C@@H](C)CO)C(=O)c2cc(NS(C)(=O)=O)ccc2O1	-1.7	-1	1.9	nt	nt	nt	nt	i	-2
37	COc1cccc(CNCc2ccccn2)c1OC	nt	nt	nt	9%	2.1	0.69	5	nt	nt
38	C[C@H](CO)N1C[C@H](C)[C@@H](CN(C)C(=O)Nc2ccccc2C(F)(F)F)OCc2cn(nn2)CCCC1=O	-2.8	1	0.1	nt	nt	nt	nt	i	4
39	COc1ccccc1OCC(=O)NNc1c2ccccc2nc2ccccc12	5.7	nt	nt	12%	5.4	0.62	99*	i	nt
40	N#Cc1c(-c2ccccc2Cl)cc(C2CC2)nc1N	nt	nt	nt	1%	0.5	0.72	-3	nt	nt

Single records, as listed above. Values in the order: AF4-AF9 inh	Ecoli rRNA inh	Ecoli rRNA inh RFP	Vif A3G	HNF4A DNA FP	E coli growth	ALR inh	FGF22 binding	Ecoli rRNA inh OD600
`Cc1ccnc(NC(=O)CCC(=O)N(CC(=O)NCc2ccccc2)Cc2ccco2)c1` is entered as -0.7	7	3.3	-4%	0.5	0.67	-4	i	3
`O=C(COc1ccc(Cl)cc1)NCCN1CCCC1` is entered as -18	7	1.2	nt	6.4	0.67	-6	i	8
`CCCCn1c(-c2csc(CCC)c2)n[nH]c1=S` is entered as -0.2	1	-1.8	4%	0.4	0.66	64	i	-17

Further entries
entry	Molecule	AF4-AF9 inh	Ecoli rRNA inh	Ecoli rRNA inh RFP	Vif A3G	HNF4A DNA FP	E coli growth	ALR inh	FGF22 binding	Ecoli rRNA inh OD600
41	Cc1ccc(F)cc1NC(=O)c1ccc2c(c1)OCO2	nt	nt	nt	4%	3.9	0.71	-14	nt	nt
42	CCOC(=O)c1ccc2cccc(C)n2c1=O	nt	nt	nt	1%	-1.3	0.72	-18	nt	nt
43	CC(=O)Nc1ccc(OCC(O)CN2CCN(c3ccccc3Cl)CC2)cc1 (centres undefined)	nt	nt	nt	3%	-2.4	0.71	-13	nt	nt
44	Cc1c(OC(C)C(=O)NC(Cc2c[nH]c3ccc(O)cc23)C(=O)O)ccc2c1oc(=O)c1ccccc12 (centres undefined)	1.2	-8	0.9	nt	-5.2	0.77	nt	i	-6
45	CS(=O)(=O)c1ccc2nc(NC(=O)C3CC3)sc2c1	-2.9	-1	-1.0	nt	3.7	0.63	-3	i	-1
46	CN1CC(=O)Nc2ccc(F)cc2C1=O	nt	nt	nt	2%	1.5	0.67	-20	nt	nt
47	Cc1cccn2c(CNCC3OCCc4ccccc43)c(C(=O)N3CCCCC3)nc12 (centres undefined)	4.5	-2	2.3	-8%	-0.7	0.69	-7	nt	-5
48	CCCOc1ccc(C(F)(F)F)cc1NC(=O)C1CC(=O)N(Cc2ccco2)C1 (centres undefined)	1.8	nt	nt	nt	6.7	0.69	nt	i	nt
49	O=C(NCc1ccc(F)cc1Cl)C1CCN(S(=O)(=O)N2CCCCC2)CC1	-5.7	-4	-0.9	-3%	2.6	0.66	0	i	0
50	COc1ccc(C=CC(=O)c2c(N)n(C)c(=O)n(C)c2=O)cc1	-2.9	-2	-1.5	nt	nt	nt	nt	i	-10
51	CC(C)(C)c1ccccc1OCC(=O)NCCCn1ccnc1	3.3	4	-2.4	nt	-2.7	0.7	0	i	-4
52	CCOC(=O)Nc1cc(OC)cc2ccc(C)nc12	-1.1	12	6.1	-3%	0.6	nt	nt	i	15
53	O=C(C[C@@H]1C[C@@H]2c3cc(NC(=O)Cc4ccncc4)ccc3O[C@@H]2[C@H](CO)O1)NCc1ccccn1	-0.2	3	-0.5	nt	nt	nt	nt	i	8
54	O=C(NCCCN1CCOCC1)c1ccc(CS(=O)(=O)c2c(Cl)cccc2Cl)o1	3.0	17	-0.6	0%&-3%	0.8	0.75	-7	i	6
55	Cc1ccc(Cn2nnc3c(=O)[nH]c(C4CCCN(C(=O)c5ccco5)C4)nc32)cc1 (centres undefined)	1.6	-3	-1.3	nt	-0.8	0.67	4	i	-1
56	O=C(COc1ccc(S(=O)(=O)N2CCCCC2)cc1)NCc1cccnc1	4.3	6	-4.8	2%	3.0	0.71	-5	i	4
57	CC(=O)c1sc(NC(=O)c2ccc(Cl)cc2)nc1C	8.9	2	-10	nt	-1.3	0.7	18	i	-4
58	CC1CN(C(=O)c2c([N+](=O)[O-])cnn2C)CC(C)O1 (centres undefined)	nt	nt	nt	2%	1.7	0.65	-12	nt	nt
59	CCC(=O)Nc1ccc(NC(=O)c2ccccc2Cl)nc1	nt	nt	nt	1%	3.0	0.76	-19	nt	nt
60	Nc1nc(N)nc(-c2cccc([N+](=O)[O-])c2)n1	-14	-3	-2.4	nt	-6.1	nt	nt	i	-2
61	CC1=C(C)CC(C(=O)NCc2ccccc2F)C(C(=O)O)C1 (centres undefined)	2.9	12	-1.5	nt	3.3	nt	-2	i	11

Not all compounds are listed; rates above refer to the full screens.
